eIF4H inh = inhibitors of RNA binding by human eIF4H. inhibition, % at 35 µM. 290,000 tested, 0.94% active. eIF4H fluorescence polarization binding assay. Q15056;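 active means 50% or more with normal probe brightness, or confirmed in later tests; about a fifth of its hits are not listed in these tables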;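 further: calls also rest on retests at 20 µM and on dose response follow-up; 0% = protein and probe with vehicle and 100% = probe without protein; strong numbers were not always called active; many hits fall short of the cut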
Env fusion inh = HIV envelope-mediated fusion inhibition; HeLa-JRFL Env/CEM21 cell fusion, luciferase; inhibition, % at 12.3 µM; 360,000 tested, 1.1% active;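 active means mean replicate inhibition score of at least 50 and every replicate individually at or above 50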;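 further: 0% = plate neutral controls and 100% = maraviroc near 300 nM; one replicate is shown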
CSC inhib = cancer stem cell inhibition. cancer stem cell-like cells viability, luminescence. inhibition, % at 7.5 µM. 300,000 tested, 1.1% active. AID 2717;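 active means mean at 75% or more and at least half the replicates too; tested in HMLE shEcad cells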;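 further: 0% = median of negative and 100% = median of positive control wells; the first replicate is given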
Yeast UUG start = alters start codon recognition fidelity in yeast; S. cerevisiae UUG-firefly luciferase reporter, luminescence/redox ratio; activity score, % at 18.7 µM; 350,000 tested, 0.13% active;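 active means replicate mean at a twofold rise or more, about +100% in these data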;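 further: firefly luciferase made from a UUG start codon reports start codon fidelity; reporter light over untreated wells divided by growth signal over untreated wells; some hits fall short of that in this replicate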
MT1-MMP act inh = inhibitors of human MT1-MMP activation. 360,000 tested, 0.061% active. P50281. HT1080 RFP-PRO-GFP cells, GFP/RFP ratio fluorescence, overnight; percent of plate control window, DMSO zero. GFP/RFP ratio change, % at 20 µM;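 active means GFP/RFP ratio change of at least 30% with cell ATP level not reduced by more than half and red fluorescence within 50% of control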; further: strong numbers were not always called active
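Assay system: HT1080 cells carrying an RFP-PRO-GFP reporter | Dosing: Single dose of 20 µM compound, 1% DMSO final | Incubation: Cells overnight before dosing, compound overnight, 37 °C, 5% CO2 | Evaluation: GFP/RFP fluorescence ratio | Control set: DMSO and RFP-L50D-GFP cell wells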
PABP FP inh = blocks human PABP binding to poly(A) RNA | P11940 | fluorescence polarization | inhibition, % at 35 µM | 290,000 tested, 1% active | AID 2014;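 active means 50% or more with normal probe brightness, or confirmed in later tests; about a fifth of its hits are not listed in these tables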;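 further: calls also rest on retests at 20 µM and on dose response follow-up; controls were probe without protein and protein plus probe with vehicle; some compounds called inactive have numbers as strong as hits; many hits fall short of the cut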
Target sequence (P11940 whole entry, looked up): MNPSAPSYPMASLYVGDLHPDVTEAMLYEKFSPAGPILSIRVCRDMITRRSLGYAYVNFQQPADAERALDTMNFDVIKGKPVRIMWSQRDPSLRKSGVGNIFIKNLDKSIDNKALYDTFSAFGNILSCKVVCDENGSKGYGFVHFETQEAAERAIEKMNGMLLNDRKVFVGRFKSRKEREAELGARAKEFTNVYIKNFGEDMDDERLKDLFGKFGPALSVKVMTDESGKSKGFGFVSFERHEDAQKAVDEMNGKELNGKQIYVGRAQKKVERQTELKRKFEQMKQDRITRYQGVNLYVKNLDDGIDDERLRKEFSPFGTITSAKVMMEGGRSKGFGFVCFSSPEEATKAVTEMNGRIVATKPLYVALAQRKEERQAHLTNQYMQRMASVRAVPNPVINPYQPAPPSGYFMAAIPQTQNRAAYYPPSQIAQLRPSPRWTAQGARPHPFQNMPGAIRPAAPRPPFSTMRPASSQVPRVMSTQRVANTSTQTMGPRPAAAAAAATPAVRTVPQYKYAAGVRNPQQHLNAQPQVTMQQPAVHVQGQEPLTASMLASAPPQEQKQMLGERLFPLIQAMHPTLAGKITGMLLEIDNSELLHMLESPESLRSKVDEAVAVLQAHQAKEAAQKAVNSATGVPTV
Rce1 inh = inhibitors of yeast Ras-converting enzyme | 290,000 tested, 0.27% active | calls only | yeast membranes, quenched prenylated peptide cleavage fluorescence;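 active means fall in fluorescence gain of 50% or more versus controls, with final raw signal at or below 3038400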;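 further: plate controls were neutral control wells for no effect and wells lacking membranes for full effect; tested at 10 µM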
Target sequence (Q03530 whole entry, looked up): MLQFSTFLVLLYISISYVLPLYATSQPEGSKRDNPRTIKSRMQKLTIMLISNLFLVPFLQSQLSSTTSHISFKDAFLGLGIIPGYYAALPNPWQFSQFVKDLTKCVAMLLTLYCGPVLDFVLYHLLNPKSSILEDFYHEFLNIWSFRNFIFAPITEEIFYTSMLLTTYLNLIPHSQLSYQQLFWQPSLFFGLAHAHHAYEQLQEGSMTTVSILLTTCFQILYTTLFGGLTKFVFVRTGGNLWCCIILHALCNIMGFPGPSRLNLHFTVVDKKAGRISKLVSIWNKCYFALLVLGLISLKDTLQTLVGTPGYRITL
eIF4H inh retest = second read-out of eIF4H inh, no call of its own (marks repeat the call); inhibition, %; compound at 20 µM; confirmation average;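 mean of two retest wells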
PABP FP inh retest = recorded beside PABP FP inh, whose call it bears; inhibition, %; compound at 20 µM; confirmation repeats;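 mean of two retest wells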
MT1-MMP act inh RFP = recorded beside MT1-MMP act inh, whose call it bears; RFP signal change, %; measured here: RFP expression control read;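 0 = vehicle wells; hits needed this value within 50% of zero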
Active calls of the source: *; i = inactive; / = not tested or not shown; & = joins results of further samples. Not a hit list; any-hit rate near 2.9%.

SMILES	eIF4H inh	Env fusion inh	CSC inhib	Yeast UUG start	MT1-MMP act inh	MT1-MMP act inh RFP	PABP FP inh	Rce1 inh	others
Cc1ccc(NC(=O)c2cc(S(=O)(=O)N3CCCCC3)ccc2N2CCOCC2)cc1F	1	-18	-5	11	6	-5	6	i
Cc1ncc(S(=O)(=O)c2ccccc2)c(-c2ccccc2)n1	-9	/	-18	-5	0	4	9	i
CC[C@@]1(C(=O)OC)N[C@H](CN(C)S(=O)(=O)c2ccc(-c3ccccc3)cc2)[C@@H]2C(=O)N(Cc3ccccc3)C(=O)[C@@H]21	/	138*	/	-5	-1	2	/	/
CC(C)CCNC(=O)c1ccc(NC(=O)C2=CSCCO2)cc1	-5	-14	-3	-9	0	2	-2	i
COc1cc2oc(=O)cc(-c3cccc(-c4cccc(C)c4)c3)c2c(OC)c1OC	/	57*	/	-9	-2	-7	/	/
CCC(C)N1C(=O)S/C(=C/c2ccc(N3CCOCC3)cc2C)C1=O (stereo not given)	-2	-3	25	/	-8	1	8	i
CCNC(=O)C1CC(=O)N(c2ccc(OCC)cc2)C1 (stereo not given)	0	/	2	3	1	9	1	i
CCCN(CC1CC1)C(=O)COC(=O)c1[nH]c(C)c(C(=O)OCC)c1C	-6	/	/	2	1	-4	11	i
CN(C)C(CNc1ncnc2sc3c(c12)CCCC3)c1ccco1 (stereo not given)	33	16	42	/	0	-2	-9	i
CC(C)c1ccc(N(C(=O)c2ccco2)C(C(=O)NC2CCCC2)c2ccncc2)cc1 (stereo not given)	2	62*	/	-21	1	1	4	i
COc1ccc(-c2noc(CSc3nnc(-c4ccccc4)n3C)n2)cc1	2	/	/	-18	1	-1	-7	i
Cc1ccc(C(=O)OCC(=O)N(CC(C)C)c2c(N)n(Cc3ccccc3)c(=O)[nH]c2=O)s1	0	-23	-4	4	-4	1	8	i
CCOc1ccc2[nH]cc(C(=O)N3CCN(CC)CC3)c(=O)c2c1	5	-37	-8	2	0	-1	2	i
Cn1nnnc1SCC(=O)Nc1cc(C(=O)O)cc(C(=O)O)c1	-8	6	-12	-14	1	3	22	i
O=C(CCCC(=O)c1ccccc1)NCCc1ccccc1F	-2	-10	-11	43	-3	0	-3	i
COc1ccc(Cl)cc1Nc1ncnc2sc(C)c(S(=O)(=O)N3CCC(C)CC3)c12	-8	/	13	-11	-8	-5	-4	i
COc1ccccc1NC(=O)c1ccc(NS(C)(=O)=O)cc1	2	/	2	8	8	1	11	i
CC(=O)N1CCN(C(=O)CSc2nc3c(cnn3-c3ccccc3)c(=O)[nH]2)CC1	3	/	-4	-6	-2	3	4	i
Cc1ccccc1NC(=O)Cn1c(C)nc2ccc(N)cc2c1=O	-2	/	-4	-3	6	6	8	i
Cc1cc(C)c(C#N)c(Nc2ccccc2)n1	-4	-1	-10	9	8	4	-5	i
O=C(NC1(C(F)(F)F)NC(=O)N(Cc2cccnc2)C1=O)c1ccncc1 (stereo not given)	3	/	-4	-2	8	6	1	i
O=C(Cn1c(CN2CCCCC2)nc2ccccc2c1=O)Nc1ccccc1	-14	/	-5	1	0	-3	-14	i
COc1ccc(-c2c(-c3ccc(OC)c(C)c3O)n[nH]c2C)cc1	6	-5	71	56	2	-6	-4	i
CNC(=O)Oc1ccc2c(c1)[C@]1(C)CCN(C)[C@@H]1N2C	-2&8	9&10	-9	-2&-14	-2&-1	2&3	2&-21	i
CC1=C(C(=O)Nc2ccc(Cl)cc2)C(c2ccco2)NC(=O)N1 (stereo not given)	-7	10	-5	-18	-3	2	-5	i
Cc1cccc(-c2nc(CN3CCCC(C(=O)NC4CCC(C)CC4)C3)c(C)o2)c1 (stereo not given)	-10	15	10	-6	-6	-8	4	i
CC(=O)c1cc(NC(=O)c2ccccc2)c(=O)oc1C	4	-6	/	/	-2	3	-10	i
Cc1cc(OCc2ccc(C(=O)n3cccn3)o2)ccc1Cl	13	-90	8	-8	3	14	0	i
COc1cccc(CN2C(=O)Nc3ccccc3C(=O)N2C(C)(C)C)c1	-16	11	10	-17	-4	-3	13	i
COC(=O)C1(CC2CC(c3cccc(Br)c3)=NO2)CCN(C(=O)OC(C)(C)C)CC1 (stereo not given)	2	-6	43	-12	-3	-1	4	i
N#Cc1ccc(OCC(=O)n2cc(C(=O)c3cc(Cl)cc(Cl)c3O)cn2)cc1	-3	/	8	/	/	/	2	i
CC(C)(CO)NC(=O)Nc1ccc(Cl)c(Cl)c1	1	-2	13	/	-5	-9	5	i
COc1ccc(C(=O)NC(=O)CSc2n[nH]c(N)n2)cc1	/	-3	4	-8	-2	0	/	/
C=CCN(c1ccccc1OC)S(=O)(=O)c1cccc(C(=O)OCC(=O)c2c(N)n(C)c(=O)n(C)c2=O)c1	/	34	/	-4	1	-23	/	/
O=C(COC(=O)c1ccccc1SCC(=O)NC1CCS(=O)(=O)C1)NC1CCS(=O)(=O)C1 (stereo not given)	0	-8	-17	/	0	5	-6	i
O=C(NC(=S)Nc1ccccc1O)c1cccnc1	4	-12	-7	-8	0	0	3	i
O=C(CSc1nc(-c2ccco2)cc(C(F)(F)F)n1)Nc1ccc(C(=O)N2CCOCC2)cc1	9	/	-2	13	4	0	-15	i
CSc1nsc(SCc2ccc(Cl)cc2)n1	-7	/	-3	-20	2	3	-6	i
O=C(CCC(=O)c1ccc(Cl)cc1)OCC(=O)c1ccccc1	-8	-22	-2	-6	13	2	-2	i
C#CCOCCOCCOCCNc1nc(N2CCN(C(=O)CCCCCCCCCCNC(=O)[C@H]([C@@H](C)CC)n3cc(CCCCCN)nn3)CC2)nc(N2CCN(C(=O)CCCCCCCCCCNC(=O)[C@H](CCCCN)n3cc(CCCC(=O)O)nn3)CC2)n1	/	/	9	-6	26	1	/	/

Some of these compounds in order of molar mass, largest number first.
SMILES	eIF4H inh	Env fusion inh	CSC inhib	Yeast UUG start	MT1-MMP act inh	MT1-MMP act inh RFP	PABP FP inh	Rce1 inh	others
C#CCOCCOCCOCCNc1nc(N2CCN(C(=O)CCCCCCCCCCNC(=O)[C@H]([C@@H](C)CC)n3cc(CCCCCN)nn3)CC2)nc(N2CCN(C(=O)CCCCCCCCCCNC(=O)[C@H](CCCCN)n3cc(CCCC(=O)O)nn3)CC2)n1	/	/	9	-6	26	1	/	/
C=CCN(c1ccccc1OC)S(=O)(=O)c1cccc(C(=O)OCC(=O)c2c(N)n(C)c(=O)n(C)c2=O)c1	/	34	/	-4	1	-23	/	/
O=C(COC(=O)c1ccccc1SCC(=O)NC1CCS(=O)(=O)C1)NC1CCS(=O)(=O)C1 (stereo not given)	0	-8	-17	/	0	5	-6	i
O=C(CSc1nc(-c2ccco2)cc(C(F)(F)F)n1)Nc1ccc(C(=O)N2CCOCC2)cc1	9	/	-2	13	4	0	-15	i
COC(=O)C1(CC2CC(c3cccc(Br)c3)=NO2)CCN(C(=O)OC(C)(C)C)CC1 (stereo not given)	2	-6	43	-12	-3	-1	4	i
N#Cc1ccc(OCC(=O)n2cc(C(=O)c3cc(Cl)cc(Cl)c3O)cn2)cc1	-3	/	8	/	/	/	2	i
Cc1cccc(-c2nc(CN3CCCC(C(=O)NC4CCC(C)CC4)C3)c(C)o2)c1 (stereo not given)	-10	15	10	-6	-6	-8	4	i
CC1=C(C(=O)Nc2ccc(Cl)cc2)C(c2ccco2)NC(=O)N1 (stereo not given)	-7	10	-5	-18	-3	2	-5	i
COc1ccc(-c2c(-c3ccc(OC)c(C)c3O)n[nH]c2C)cc1	6	-5	71	56	2	-6	-4	i
Cc1cc(OCc2ccc(C(=O)n3cccn3)o2)ccc1Cl	13	-90	8	-8	3	14	0	i
COc1ccc(C(=O)NC(=O)CSc2n[nH]c(N)n2)cc1	/	-3	4	-8	-2	0	/	/
CSc1nsc(SCc2ccc(Cl)cc2)n1	-7	/	-3	-20	2	3	-6	i
CC(C)(CO)NC(=O)Nc1ccc(Cl)c(Cl)c1	1	-2	13	/	-5	-9	5	i
CNC(=O)Oc1ccc2c(c1)[C@]1(C)CCN(C)[C@@H]1N2C	-2&8	9&10	-9	-2&-14	-2&-1	2&3	2&-21	i
O=C(NC(=S)Nc1ccccc1O)c1cccnc1	4	-12	-7	-8	0	0	3	i
CC(=O)c1cc(NC(=O)c2ccccc2)c(=O)oc1C	4	-6	/	/	-2	3	-10	i

New compounds follow.
SMILES	eIF4H inh	Env fusion inh	CSC inhib	Yeast UUG start	MT1-MMP act inh	MT1-MMP act inh RFP	PABP FP inh	Rce1 inh	others
CC(=O)N1CCc2c(sc(NC(=O)C3CCCCC3)c2C(N)=O)C1	60	7	1	2	-5	2	14	i	eIF4H inh retest=8;PABP FP inh retest=31
COC(=O)c1cc(=O)n(CCc2ccccc2F)c(=Nc2ccc(F)c(Cl)c2)s1	-7	-37	122*	-14	-13	-21	1	i
Cc1ccc(-c2cccc(C(=O)NCc3ccccc3)n2)c2ccccc12	1	0	42	-15	-2	-2	0	i
COc1ccc(N2CCN(CCCNS(=O)(=O)c3c(C)noc3/C=C/N(C)C)CC2)cc1	-1	/	-13	/	/	/	-12	i
Cn1cc(Br)c(C(=O)N2CCN(c3cccc(Cl)c3)CC2)n1	-1	10	1	2	1	1	4	i
COCCNC(=S)N(CCc1c(C)[nH]c2ccc(OC)cc12)Cc1ccco1	-4	0	9	-15	1	-6	3	i
COc1ccc(Cl)cc1NC(=O)C1CCCO1 (stereo not given)	-5	/	-1	-7	4	5	-10	i
Nc1[nH]c(N=NC(=O)c2ccc(Cl)cc2)c2ccccc12	-1	-26	0	-10	4	4	-6	i
C/C(=N\Nc1ccc(C(=O)O)cc1)c1ccc2c(c1)Nc1ccccc1S2	84*	-313	20	-29	1	-8	63*	/
CCS(=O)(=O)c1nc2ccccc2n1CC(=O)N1CCOCC1	7	/	-9	51	1	4	6	i
CC(=O)N1N=C(c2ccco2)CC1c1cc2cc(C)ccc2nc1Cl (stereo not given)	-5	-6	-5	-4	4	0	-7	i
Nn1cnnc1N/N=C/c1ccc(Cl)cc1Cl	1	-4	-3	11	2	5	3	i
NS(=O)(=O)c1ccc(NC(=S)N2CCN(C(=O)C3CCCO3)CC2)cc1 (stereo not given)	-11	/	-6	-15	0	3	-1	i
CN1CCC(CN)(N2CCN(c3ccccc3)CC2)CC1	-5	15	-1	-13	1	4	-1	i
O=c1c2ccccc2c2ccccc2c(=O)n1Cc1cccnc1	0	-57	6	-18	-1	-4	-3	i
CCSc1nc(O)c(CC)c(=O)n1C(C)CC (stereo not given)	-5	-4	3	-9	5	7	-6	i
Oc1ccc(/C=N/Nc2nccnc2Cl)cc1	-12	-152	26	-17	2	3	2	i
N#Cc1ccccc1OCC(=O)C1CC1	-2	-9	-6	/	1	4	-8	i
CCOC(=O)Cc1cc(=O)n2[nH]c(C)cc2n1	4	-17	-13	-9	-5	-1	17	i
COCCN=C1NC(=O)C(CC(=O)Nc2cccc(Cl)c2C)S1 (stereo not given)	-4	1	-5	/	3	3	6	i
COc1ccccc1-c1c(NC(=O)C(C)C)n(C)c2ccccc2c1=O	8	11	2	/	-1	6	6	i
CCc1n[nH]c(=S)n1N=C1CCC(C)CC1 (stereo not given)	8	-4	-15	-22	0	5	10	i
O=[N+]([O-])c1ccccc1Nc1cccnc1	/	5	-5	-15	3	3	/	i
COc1ccc(/C(O)=C2/C(=O)C(=O)N(c3ccccn3)C2c2ccc(F)cc2)cc1 (stereo not given)	-3	-10	3	-14	0	3	4	i
COc1ccccc1C(=O)NCC(=O)N(C)Cc1nc2ccccc2c(=O)[nH]1	/	20	/	9	-4	5	/	/
OCCCC1CCCN(Cc2cn[nH]c2-c2ccc(F)cc2F)C1 (stereo not given)	-1	23	2	/	-4	-3	-7	i
CSc1nnc2c3c4c(sc3nc(-n3nc(C)cc3C)n12)COC(C)(C)C4	3	/	/	-1	-4	3	2	i
